# Assay outcomes from PubChem BioAssay.
# PABP polyA inh: blocks human PABP binding to poly(A) RNA | P11940 | fluorescence polarization | inhibition, % at 35 µM | 290,000 compounds, 1% hits | AID 2014;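 active = 50% or more with normal probe brightness, or confirmed in later tests; inconclusive = above 50% with abnormal brightness, or retests that disagree; inactive = below 50% or failed in later tests; about a fifth of its hits are not listed in these tables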;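 note: calls also rest on retests at 20 µM and on dose response follow-up; controls were probe without protein and protein plus probe with vehicle; some compounds called inactive have numbers as strong as hits; many hits fall short of the cut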
# Target sequence (P11940 whole entry, looked up): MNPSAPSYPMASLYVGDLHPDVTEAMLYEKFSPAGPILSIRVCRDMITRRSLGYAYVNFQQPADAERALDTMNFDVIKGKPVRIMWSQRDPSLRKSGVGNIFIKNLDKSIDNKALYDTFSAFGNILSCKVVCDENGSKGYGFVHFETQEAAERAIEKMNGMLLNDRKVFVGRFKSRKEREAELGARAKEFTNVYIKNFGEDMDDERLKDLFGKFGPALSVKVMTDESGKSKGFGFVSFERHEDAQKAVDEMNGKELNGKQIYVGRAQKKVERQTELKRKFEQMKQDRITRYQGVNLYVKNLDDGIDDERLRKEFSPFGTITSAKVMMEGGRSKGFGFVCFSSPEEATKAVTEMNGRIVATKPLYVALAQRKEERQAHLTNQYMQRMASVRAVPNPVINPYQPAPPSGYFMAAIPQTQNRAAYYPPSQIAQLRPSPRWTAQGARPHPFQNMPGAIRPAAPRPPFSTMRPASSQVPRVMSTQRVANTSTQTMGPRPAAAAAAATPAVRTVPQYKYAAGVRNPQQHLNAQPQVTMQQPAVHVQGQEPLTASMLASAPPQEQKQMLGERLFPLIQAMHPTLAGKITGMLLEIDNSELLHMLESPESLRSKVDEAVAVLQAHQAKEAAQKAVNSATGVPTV
# eIF4H inh: inhibitors of RNA binding by human eIF4H; AID 2012; 290,000 compounds, 0.94% hits; Q15056; inhibition, % at 35 µM; eIF4H fluorescence polarization binding assay;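 active = 50% or more with normal probe brightness, or confirmed in later tests; inconclusive = above 50% with abnormal brightness, or retests that disagree; inactive = below 50% or failed in later tests; about a fifth of its hits are not listed in these tables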;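 note: calls also rest on retests at 20 µM and on dose response follow-up; 0% = protein and probe with vehicle and 100% = probe without protein; strong numbers were not always called active; many hits fall short of the cut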
# UUG fidelity: yeast start codon fidelity modulation | S. cerevisiae UUG-firefly luciferase reporter, luminescence/redox ratio | activity score, % at 18.7 µM | 350,000 compounds, 0.13% hits | AID 602363;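 active = replicate mean at a twofold rise or more, about +100% in these data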;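 note: firefly luciferase made from a UUG start codon reports start codon fidelity; reporter light over untreated wells divided by growth signal over untreated wells; some hits fall short of that in this replicate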
# MT1-MMP act inh: MT1-MMP (human) activation inhibition | AID 651647 | 360,000 compounds, 0.061% hits | GFP/RFP ratio change, % at 20 µM | HT1080 RFP-PRO-GFP cells, GFP/RFP ratio fluorescence, overnight; percent of plate control window, DMSO zero;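 active = GFP/RFP ratio change of at least 30% with cell ATP level not reduced by more than half and red fluorescence within 50% of control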; note: strong numbers were not always called active
#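 Test system: HT1080 RFP-PRO-GFP cells; Benchmarks: DMSO and RFP-L50D-GFP cell wells; Timing: cells overnight before dosing, compound overnight, 37 °C, 5% CO2; Compound: one 20 µM compound dose with 1% DMSO; Read-out: GFP/RFP fluorescence ratio.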
# Env fusion inh: blocks HIV Env-driven cell-cell fusion; inhibition, % at 12.3 µM; HeLa-JRFL Env/CEM21 cell fusion, luciferase; 360,000 compounds, 1.1% hits;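 active = mean replicate inhibition score of at least 50 and every replicate individually at or above 50; inconclusive = only one of the two criteria met; inactive = mean below 50 and not all replicates reaching 50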;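 note: 0% = plate neutral controls and 100% = maraviroc near 300 nM; one replicate is shown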
# Rce1 inh: inhibitors of yeast Ras-converting enzyme | Q03530 | yeast membranes, quenched prenylated peptide cleavage fluorescence | calls only | 290,000 compounds, 0.27% hits;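 active = fall in fluorescence gain of 50% or more versus controls, with final raw signal at or below 3038400; inconclusive = same 50% fall but final raw signal above 3038400; inactive = fall in fluorescence gain under 50%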;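 note: plate controls were neutral control wells for no effect and wells lacking membranes for full effect; tested at 10 µM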
# Target sequence (Q03530 whole entry, looked up): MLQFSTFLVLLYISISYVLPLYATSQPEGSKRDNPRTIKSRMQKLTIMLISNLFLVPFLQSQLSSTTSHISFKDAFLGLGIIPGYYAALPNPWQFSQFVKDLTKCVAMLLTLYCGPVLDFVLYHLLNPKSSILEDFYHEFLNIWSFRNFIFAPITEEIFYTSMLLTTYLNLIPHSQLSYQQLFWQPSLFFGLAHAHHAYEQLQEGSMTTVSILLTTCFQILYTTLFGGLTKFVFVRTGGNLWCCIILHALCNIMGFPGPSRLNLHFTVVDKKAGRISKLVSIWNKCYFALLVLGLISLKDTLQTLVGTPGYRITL
# CSC inhib: cancer stem cell inhibition; cancer stem cell-like cells viability, luminescence; 300,000 compounds, 1.1% hits; inhibition, % at 7.5 µM; AID 2717;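 active = mean at 75% or more and at least half the replicates too; inconclusive = mean and replicates disagree; tested in HMLE shEcad cells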;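 note: 0% = median of negative and 100% = median of positive control wells; the first replicate is given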
# eIF4H inh retest: also measured in eIF4H inh; calls as there; inhibition, %; compound at 20 µM; confirmation average;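 mean of two retest wells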
# PABP polyA inh retest: recorded beside PABP polyA inh, whose call it bears; inhibition, %; compound at 20 µM; confirmation repeats;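 mean of two retest wells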
# MT1-MMP act inh RFP: also measured in MT1-MMP act inh; calls as there; RFP signal change, %; measured here: RFP expression control read;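 0 = vehicle wells; hits needed this value within 50% of zero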
# * marks the source's active call; other numbers are inactive results; i = inactive; ? = inconclusive; · = not tested or not shown; & = joins results of further samples.
SMILES,PABP polyA inh,eIF4H inh,UUG fidelity,MT1-MMP act inh,MT1-MMP act inh RFP,Env fusion inh,Rce1 inh,CSC inhib,others
Cc1ccc(CNC(=O)Cn2c(=O)c3sccc3n(Cc3cccc([N+](=O)[O-])c3)c2=O)cc1,-5,-6,·,·,·,·,i,-6,
CC1CN(S(=O)(=O)c2cc(C(=O)N(CCc3ccccc3)Cc3ccccc3)ccc2Cl)CC(C)O1 (stereo unspecified),·,·,-13,-14,-17,20,i,9,
NC(=S)N/N=C\c1ccccc1OCc1ccccc1,-2,0,-18,-5,-8,-22,i,6,
CC(C)CC(=O)N1CCN(c2ccc([N+](=O)[O-])c(NCc3ccccc3)c2)CC1,·,·,3,-6,-13,7,i,·,
O=C(CSc1nc(=O)n2ccccc2n1)Nc1ccc2c(c1)OCCO2,·,·,-13,-3,0,-20,i,·,
O=C(O)c1cccc(S(=O)(=O)Nc2ccc([N+](=O)[O-])cc2O)c1,1,-2,-7,2,6,3,i,-13,
CCOc1ccc(CCN2C(=O)CCC2(C)C(=O)NC(C)CC)cc1OCC (stereo unspecified),-8,-2,17,-6,-6,-37,i,·,
CC(OC(=O)CN1C(=O)NC2(CCCC2)C1=O)C(=O)Nc1cccc(Cl)c1 (stereo unspecified),-3,-5,16,2,1,-8,i,0,
CCOC(=O)c1ccc(NC(=O)C2COc3ccccc3O2)cc1 (stereo unspecified),1,-3,-2,2,1,-20,i,-7,
CC(C)N(C(=O)Cn1c(SCC(=O)N2CCN(c3ccccc3)CC2)nc2ccccc21)C(C)C,-4,-6,·,·,·,·,i,5,
COc1ccc(-c2cc3c(nn2)-c2ccccc2C3=O)cc1,-3,3,-62,6,11,22,·,30,
CC1OC(OC2C(CO)OC(OCC3OC(OC(=O)[C@@]45CCC(C)(C)C[C@@H]4C4=CC[C@@H]6[C@@]7(C)CCC(OC8OCC(O)C(O)C8OC8OC(C)C(O)C(O)C8O)[C@@](C)(CO)C7CC[C@@]6(C)[C@]4(C)CC5)C(O)C(O)C3O)C(O)C2O)C(O)C(O)C1O (stereo partly specified),·,·,26,-1,-2,-3,·,·,
O=C(Cc1ccccc1[N+](=O)[O-])NCCCc1ccccc1,0,5,-8,-1,0,7,i,·,
COc1ccc(NC2CCCN(C(=O)CN3C(=O)c4ccccc4C3=O)C2)cc1OC (stereo unspecified),-4,-9,-2,0,-3,1,i,-1,
Cc1c(C(=O)NCc2ccc(C(C)C)cc2)sc(=O)n1Cc1cccc(F)c1,·,·,-23,0,-5,20,·,·,
CCOC(CNC(=O)c1cccn2c(=O)c3cc(Cl)ccc3nc12)OCC,-8,-1,8,-6,-12,-25,i,-5,
Cc1ccc(S(=O)(=O)N2CC=C(c3c(C)n(C)c4ccccc34)CC2)cc1,14,?,·,13,13,4,i,-44,
Cc1c(F)cccc1NS(=O)(=O)c1ccc2c(c1)n(C)c(=O)c(=O)n2C,2,-7,2,3,3,-1,i,-6,
O=c1cnnc(Nc2ccccc2)[nH]1,-6,-3,·,7,3,-10,·,-5,
CCc1nc2c(OCc3ccccc3C)cccn2c1N(C)C(=O)C(C)C,·,·,-9,0,-2,-5,·,·,
Fc1ccccc1N1CCN(c2ncnc3nc[nH]c23)CC1,10,-4,-9,11,5,-9,i,-6,
CCc1cccc(C)c1NC(=O)C(c1ccc(O)cc1)N1CCC1=O (stereo unspecified),10,4,-8,2,2,·,i,6,
CC(=O)NC1C(Oc2cccc(C)c2)OC2COC(c3ccco3)OC2C1O (stereo unspecified),3,2,·,6,7,·,i,1,
Cc1ccc(CS(=O)Cc2ccc(C(=O)NCc3ccc(OC(C)C)cc3)o2)cc1 (stereo unspecified),7,-3,-4,2,-3,16,i,28,
CC(=O)NC(=S)NNC(=O)C(c1ccccc1)c1ccccc1,7,10,·,6,5,29,i,1,
O=C(Nc1ccc(Cl)cc1)C1=Cc2cc(Cl)ccc2OC1,6,-14,·,2,0,·,i,8,
COc1ccc(-n2c(SCC(=O)NC3CC3)nc3ccccc3c2=O)cc1OC,·,·,-1,1,-2,-307,·,·,
O=C(Nc1ccc(Br)cc1C(=O)O)c1ccc2c(c1)C(=O)N(Cc1ccccc1)C2=O,10,-4,-8,3,0,4,i,12,
N#C/C(=C(/O)COC(=O)CCc1ccc(S(=O)(=O)N2CCOCC2)cc1)c1nc2ccccc2[nH]1,41*,81,-52,-35,-14,·,i,-6,eIF4H inh retest=44;PABP polyA inh retest=76*
C/C(=N\NC(=O)c1ccc(N/N=C(\C)c2ccncc2)cc1)c1ccncc1,16,3,·,1,-8,15,i,5,
Cc1cccc(NC(=O)C2CC(=O)OC23CCCC3)c1 (stereo unspecified),4,35,-13,-10,0,-8,i,-18,
CC(=O)N(C1CC(C)C(C#N)(C#N)C1(C#N)C#N)N(C)C (stereo unspecified),6,-10,·,-2,1,-23,i,17,
CCc1nc(Nc2ccccc2)c2oc3ccccc3c2n1,6,8,-9,3,-12,-61,i,16,
CCN(CC)CCCNC(=O)CNC(=S)N(CCCN1CCOCC1)Cc1cccs1,-2,0,·,0,4,-8,i,-9,
CN(Cc1ccccc1)Cc1nc2c([nH]1)c(=O)[nH]c(=O)n2C,6,6,-19,5,4,-50,·,-18,
Clc1ccc(C2=NCCn3nc4ccccc4c32)cc1,·,·,-20,4,1,-50,i,29,
CNCC(O)Cn1c(C(F)(F)F)nc2ccccc21 (stereo unspecified),4,5,-14,-1,0,·,i,6,
COc1cc2c(cc1OC)-c1cc(NC3CC3)nc(=O)n1CC2,-6,-11,·,·,·,·,i,-13,
Nc1ncnc(Nc2cc(Cl)cc(Cl)c2)c1[N+](=O)[O-],-3,12,·,3,1,-4,i,13,
Cc1ccc(C(=O)Cn2ncsc2=N)cc1,-8,-4,-22,4,1,-25,i,-7,
CCOC(=O)c1c(C)[nH]c(C)c1S(=O)(=O)N1CCOCC1,7,1,-14,0,-1,-8,i,-17,
Cc1ccn2c(=O)c(NC(=O)c3cccc4ccccc34)c(C)nc2c1,·,·,-11,5,5,0,i,-12,
CNc1nc(C)c(C#N)cc1C(C)=O,7,3,-12,-1,4,-82,i,4,
CC(OC(=O)c1ccc(O)cc1)C(=O)Nc1cc(C(F)(F)F)ccc1Cl (stereo unspecified),-4,-9,-19,-8,-7,-74,i,47,
C/C(=N\Nc1ccc(S(=O)(=O)N2CCCCC2)cn1)c1cccc(Br)c1,·,·,-8,1,-4,-1,·,29,
CC(=O)c1cccc(N(CC(=O)NCCc2ccccc2)C(=O)c2csnn2)c1,-1,-9,-7,0,1,1,i,·,
CN(Cc1nc(-c2ccccn2)no1)S(=O)(=O)c1ccc(Cl)cc1,-11,-7,-2,-2,-2,11,i,-4,
Cc1nnc(NCc2ccccc2)c2ccccc12,-1,-6,-7,1,3,-14,i,-5,
c1ccc2c(c1)CC(N1CCCCC1)c1ccccc1S2 (stereo unspecified),·,·,·,-1,3,11,i,4,
CC(=O)N(c1cccc(C)c1)C1SC(=O)N(c2ccccc2)C1=O (stereo unspecified),-2,-3,-2,5,1,·,i,3,
CC(=O)c1cc(C(=O)Nc2ccc(C(=O)O)cc2)oc1C,-8,-5,30,3,6,-135,i,-7,
Cc1ccc(S(=O)(=O)N2CCN(c3ccccn3)CC2)cc1,8,-5,-15,1,-1,21,i,-36,
CCN1CC(CN(C)Cc2nc(-c3ccc(C(F)(F)F)cc3)no2)CC1=O (stereo unspecified),-7,8,-8,4,-11,17,i,-13,
C[C@H](CO)N1C[C@H](C)[C@@H](CN(C)Cc2cccc(C(=O)O)c2)OCc2cnnn2CCCC1=O,·,·,-1&1,2,5,14,·,·,
CN(C(=O)c1ccccc1C(=O)OCC(=O)c1ccc(F)cc1)c1ccccc1,·,·,-11,-3,-4,·,·,-9,
CC(C)C(N)c1csc(NC(=O)Nc2ccc(OC(F)(F)F)cc2)n1 (stereo unspecified),·,·,-12,0,-17,-10,·,·,
O=C(Nc1cccc(S(=O)(=O)N2CCOCC2)c1)c1c2c(nc3ccccc13)CCC2,-8,92,·,-4,0,-8,i,-11,eIF4H inh retest=-8;PABP polyA inh retest=6
COc1ccc(NS(=O)(=O)c2cccc(C(=O)N/N=C/c3cccs3)c2)cc1,2,2,-10,1,0,·,i,4,
O=C(CSCc1ccc([N+](=O)[O-])cc1)NC1CCCCCC1,5,-6,·,3,-2,33,i,-3,
COc1ccc(CNC(=O)[C@H](CCSC)NC(=O)N2CCn3c2nc2ccccc23)cc1,-4,-12,-14,6,1,6,i,-17,
# (cont.)
SMILES,PABP polyA inh,eIF4H inh,UUG fidelity,MT1-MMP act inh,MT1-MMP act inh RFP,Env fusion inh,Rce1 inh,CSC inhib,others
CC(=O)c1cccc(NC(=O)Cn2c(=O)oc3cc(S(=O)(=O)N4CCCC4)ccc32)c1,-8,-19,-15,1,3,5,i,-6,
COc1ccc(NC(=O)Cn2nc(Cc3cccnc3)c3ccccc3c2=O)cc1OC,-10,-10,-16,5,4,4,i,-8,
COc1cc(OC)cc(-n2nnnc2SCC(=O)Nc2ccc(C(C)=O)cc2)c1,-3,-7,6,-7,-1,·,i,-3,
COc1ccccc1Nc1nc(-c2c(C)[nH]c3ccccc23)cs1,-13,-9,·,63,83,-6,·,-3,
COc1ccccc1[N+](=O)[O-],·,·,-11,-1,11,·,·,-11,
CCOC(=O)C1=C(C)N(CC)C(=S)NC1c1ccc(Cl)cc1 (stereo unspecified),-2,-2,-3,-5,-11,29,i,-2,
NC(=O)CC(NC(=O)Cc1ccc(Br)cc1)c1ccc(NC2CCCC2)c([N+](=O)[O-])c1 (stereo unspecified),-10,-11,-28,21,2,-19,i,43,
COc1ccc(NC(=O)c2cccc(S(=O)(=O)N3CCOCC3)c2)cc1,8,-15,-3,1,1,3,i,·,
COc1cc(OC)cc(OC(=O)C2CCN(S(=O)(=O)c3ccc(OC)c(OC)c3)CC2)c1,·,·,-12,6,-2,·,i,-7,
Cc1cc(C)c2cc(CN(Cc3ccco3)C(=S)NCC3CCCO3)c(=O)[nH]c2c1 (stereo unspecified),9,0,·,-1,-7,-8,i,24,
COC(=O)c1ccc(N2CCN(C)CC2)c(NC(=O)c2ccc(Br)o2)c1,0,-6,-6,-3,-4,6,i,-1,
CCCC[n+]1c(-c2ccc(Cl)cc2Cl)csc1Nc1ccccc1,-11,-18,2,-5,-7,-1,i,52,
Nn1c(SCc2ccccc2)nnc1-c1ccco1,0,-13,-17,0,1,8,i,10,

# Entries above with an aryl thioether with sulfur outside any ring:
SMILES,PABP polyA inh,eIF4H inh,UUG fidelity,MT1-MMP act inh,MT1-MMP act inh RFP,Env fusion inh,Rce1 inh,CSC inhib,others
O=C(CSc1nc(=O)n2ccccc2n1)Nc1ccc2c(c1)OCCO2,·,·,-13,-3,0,-20,i,·,
CC(C)N(C(=O)Cn1c(SCC(=O)N2CCN(c3ccccc3)CC2)nc2ccccc21)C(C)C,-4,-6,·,·,·,·,i,5,
COc1ccc(-n2c(SCC(=O)NC3CC3)nc3ccccc3c2=O)cc1OC,·,·,-1,1,-2,-307,·,·,
COc1cc(OC)cc(-n2nnnc2SCC(=O)Nc2ccc(C(C)=O)cc2)c1,-3,-7,6,-7,-1,·,i,-3,
Nn1c(SCc2ccccc2)nnc1-c1ccco1,0,-13,-17,0,1,8,i,10,
